Bioassay records (PubChem BioAssay)
NPYLR7 ag: activates Aedes aegypti NPYLR7 receptor; HEK293T NPYLR7/Galpha15, GCaMP6s calcium fluorescence; activation, % at 10 µM; actives 0.15% (n = 270,000); in the data active = activation above about 40%;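 also: 0% = vehicle and 100% = reference agonist at the receptor; some compounds past the cut are filed as inactive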
NPYLR7 ag max-min: also measured in NPYLR7 ag; calls as there; activation, %; measured here: Max-Min RFU normalised activation; some inactives read as strong as hits;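 span of the calcium signal over five minutes; 0% = vehicle and 100% = native peptide agonist; compound fluorescence can raise it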
The depositor's hits bear a star; & = joins results of further samples.

SMILES	NPYLR7 ag	NPYLR7 ag max-min
COc1ccc(CN2CCCN(c3ccc(S(=O)(=O)Nc4ccccc4)cc3[N+](=O)[O-])CC2)cc1	1	0
O=C1CCCC(=NNC(=O)Cc2cn3ccsc3n2)C1	14	8
Nc1ccc(N2CCCCCC2)cc1	-3	-10
O=S(=O)(c1ccc(F)cc1)c1nc(-c2ccco2)oc1NCCCn1ccnc1	3	9
O=C(NCCCCCC(=O)N1CCCC1c1nnc2c(C(F)(F)F)cccn12)OCc1ccccc1 (stereo unspecified)	-8	-12
Cc1nnc2ccc(OCCNS(=O)(=O)c3ccc(Cl)cc3)nn12	1	3
CC1C(=O)N(c2ccc(Cl)cc2)CCN1C(=O)c1ccco1 (stereo unspecified)	0	9
CCOc1ccc(S(=O)(=O)NC(=O)CNC(=O)C(C)CC)cc1 (stereo unspecified)	7	5
CC(C)(C)OC(=O)C[C@@H]1CCN(C(=O)c2ccnc(Cl)c2)C[C@@H]1CCN1CCN(c2ccccn2)CC1	-12	-18
COC(=O)Cn1c(C)nc([N+](=O)[O-])c1Br	5	3
O=C1NC(=S)NC(=O)C1=Cc1ccccc1OCc1ccc([N+](=O)[O-])cc1	-1	-5
Cc1ccc(-n2c(=O)[nH]c3c(C(N)=O)nc(-c4cccs4)nc32)cc1C	19	6
N#Cc1cc([N+](=O)[O-])c[nH]c1=O	-8	-9
COc1ccc(-c2ncc(CN3CCCC(Nc4ccc(F)cc4)C3)cn2)cc1 (stereo unspecified)	2	0
CC1CCC2(CC1)N=C(c1cccc(F)c1)C(=S)N2 (stereo unspecified)	4	-3
CCc1cc2c(=O)c(-c3ccccc3Cl)c(C)oc2cc1OC	-5	-7
CCN(CC)CCOc1ccc(NC(=O)NC2CCN(C)CC2)cc1	10	5
CCOC(=O)CNC(=O)N(CCOC)CC(=O)N(CCc1c[nH]c2ccccc12)Cc1ccc(C)cc1	21	19
COc1cccc(-c2nc3c(NCCO)nccc3[nH]2)c1F	-3	-8
CC(=O)c1ccc2c(c1)[C@@H]1C=CC[C@@H]1[C@H](c1cc3c(cc1Br)OCO3)N2	11	3
CCc1ccccc1NC(=O)c1c(-c2ccccc2Cl)noc1C	0	0
CNC(=O)c1cccc(NC(=O)c2ccc3c(c2)OCO3)c1	2	2
O=S(=O)(NCc1nnnn1-c1ccc(Cl)cc1)c1ccccc1C(F)(F)F	-1	-2
CN(CCC1CCOCC1)Cc1cn[nH]c1-c1ccc(-c2ccccc2)cc1	4	0
CCOCCCNCC(=O)N(CCc1ccc(OC)c(OC)c1)Cc1ccc(C)o1	-1	-3
COc1ccccc1-c1cccc(-c2cccc(NC(=O)c3cc(F)ccc3C)c2)n1	-3	8
Cc1cnc(C(=O)Nc2ccc(N3CC(C)OC(C)C3)c(F)c2)cn1 (stereo unspecified)	5	2
c1ccc2c3c([nH]c2c1)CN(Cc1cc2n(n1)CCNC2)CC3	15	14
O=C(CCc1ccccc1)C(=O)N1CCCC(C(=O)c2cccc(Cl)c2)C1 (stereo unspecified)	3	-3
CN1CCC(C)(C(=O)Nc2ccc(Cl)c(Cl)c2)C1 (stereo unspecified)	0	-1
NC(=O)NC(=O)COC(=O)CN1C(=O)C2CCCCC2C1=O (stereo unspecified)	21	12
Cn1c(COc2ccccc2C(F)(F)F)nc2c1c(=O)[nH]c(=O)n2C	0	14
COc1ccccc1NC(=O)Cn1c(-n2nc(C)cc2C)nc(C)cc1=O	-1	-3
Cc1nc(C)c(C(=O)OCC2CCN(CC(F)(F)F)CC2)s1	8	5
O=C1NC(=S)/C(=C/c2ccccc2O)S1	2	3
CCCCOc1ccc(C2CC(=O)Nc3cc(N4CCNC4=O)ccc32)cc1 (stereo unspecified)	10	-3
Cc1cc(C)c(C#N)c(N2CCN(Cc3ccc(Cl)cc3)CC2)n1	3	-1
CCCCCCc1ccc(C(=O)N2CCN(C(=O)c3cc(-c4cccc(OC)c4)n(-c4ccccc4F)c3C)CC2)cc1	-11	1
Cc1cnc(NC(=O)/C=C/c2cccc(C(F)(F)F)c2)s1	10	9
COCCCN(CC(=O)N(Cc1ccccc1)Cc1ccco1)C(=O)Nc1ccccc1OC	-9	-8
Nn1cc(-c2ccccc2)nc1SCc1ccccc1Cl	-6	-1
COc1ccc(-c2ccc3c(c2)COCC(=O)N3C(C)C)cn1	8	3
CCc1cc(C(=O)Nc2cccc(S(=O)(=O)NC3CC3)c2)sc1C	-1	19
CC(C)=CCC/C(C)=C/CNC(=O)c1cc(N2CCc3ccccc3C2)nc2ccccc12	5	2
NC(=O)c1c(SCc2ccc(Cl)cc2Cl)sc2c(O)cc(=O)[nH]c12	4	3
Cc1ccc(CN2CCN(C(=O)C3CCC(O)CC3)C(C)C2=O)cc1 (stereo unspecified)	-4	6
O=C(Oc1ccccc1)Oc1ccc2sc(=O)oc2c1	-1	-4
CCN(C/C=C/c1ccccc1)C(=O)c1ccc(NC(C)=O)cc1	-5	-6
COc1ccc2cc(CNC(=O)CN(C)S(=O)(=O)c3ccc4c(c3)OCCO4)ccc2c1	-4	-4
COc1cccc(-c2cc(C(=O)N3CCN(c4ccc([N+](=O)[O-])cc4)CC3)nc3cc(-c4ccccc4)nn23)c1	3&20	3&30
COc1ccc(C(=O)c2c(N)c(-c3nc(-c4cc(OC)ccc4OC)cs3)c3ccccn23)cc1	7	6
CN(C)Cc1cccc(CNc2ncnc3c2CCNC3)c1	23	14
O=C(Nc1ccc(F)cc1Br)N1CC(Cc2ccccc2Cl)C1	9	6
CCOC(=O)c1ccc2c(c1)nc(SCc1cc(Cl)ccc1F)n2CCOC	4	-1
O=C1CC(/C=C/c2ccccc2)Cc2nc(N3CCN(CCO)CC3)ncc21 (stereo unspecified)	-9	-11
CN(Cc1ccc(N2CCCCC2)cc1)Cc1nnnn1C1CC1	3	0
CCONC(=O)c1cc2n(n1)CCN(Cc1c(Cl)cccc1Cl)C2=O	1	7
CCSC(=Nc1ccccc1)N1CCOCC1	6	10
CCc1[nH]n(-c2ccc(Cl)cc2)c(=O)c1C1=C([n+]2ccccc2)C(=O)N(CC(C)C)C1=O	11	14
CCCN1C(=O)C(c2c(C)[nH]n(-c3cccc(Cl)c3)c2=O)=C([n+]2ccccc2)C1=O	-5	-1
Going on with the list:
SMILES	NPYLR7 ag	NPYLR7 ag max-min
CC(C)(C)c1ccc(C(O)c2ncc(-c3ccccc3)[nH]2)cc1 (stereo unspecified)	2	-1
COC(=O)[C@@H]1C[C@H](C(=O)NCCn2ccc(C)n2)[C@H](c2ccccc2F)N1C	-2	-10
COc1cc(C)ccc1Oc1cc(Cl)ncn1	-9	1
Cc1cc(C)c2cc(C(=O)N(C)C)[nH]c2c1C	2	2
COc1ccc(-c2noc(CN3CCC(N4C[C@@H](C)O[C@@H](C)C4)CC3)n2)cc1	3	2
c1ccc2sc(Cc3nc(-c4ccc5c(c4)OCO5)cs3)nc2c1	1	4
CC1CCN(CC2CCCN(C(C(N)=O)c3ccccc3)C2)CC1 (stereo unspecified)	-5	-8
Cn1cc(CNCc2ccc3[nH]c4c(c3c2)CCCCCC4)cn1	18	16
COc1ccc(S(=O)(=O)N2CCN(Cc3nnnn3-c3ccccc3)CC2)cc1OC	-1	-2
Cc1cccn2c(=O)c3cc(C#N)c(=N)n(CCCOC(C)C)c3nc12	1	4
Cn1ccnc1Sc1nc(-c2ccccn2)nc2scc(-c3ccccc3)c12	0	-2
CCC(=O)N(Cc1ccco1)Cc1c(-c2ccc(F)cc2)noc1N1CCN(C)CC1	5	7
Clc1ccc(-c2nn[nH]n2)cc1	12	10
Cc1ccc(O)c(CN2CCC(c3ccnc(-c4cccc(O)c4)c3)C2)n1 (stereo unspecified)	-2	4
CC1=C(C#N)C(c2ccc(N(C)C)cc2)C2=C(CCCC2=O)N1 (stereo unspecified)	4	5
N#CC(=Cc1ccco1)C(N)=S	-4	-5
COc1ccc(OCc2cc(C(=O)NCc3cnn(C)c3C)n[nH]2)c(Cl)c1	9	9
O=C(Cc1ccccc1)N(Cc1c(-c2ccc(F)cc2)noc1N1CCOCC1)CC1CC1	5	9
O=C(c1sccc1Cl)N1CCC(n2c(-c3ccccc3)nc3ccc(F)cc32)CC1	2	4
O=C(Nc1cccnc1)c1cnn2c1NC(c1ccco1)CC2C(F)(F)F (stereo unspecified)	11	0
Cc1cccc(C(=O)Nc2ccc(Nc3ccccc3)cc2)n1	6	5
CCCCSc1ncc(CN2CCC3(CC2)CN(C)CCN3C)cn1	3	-7
O=C(NNC(=O)c1ccc(CS(=O)(=O)c2ccccc2)o1)c1ccccc1	1	7
O=C(NCCOc1ccc(-c2ccc(F)cc2)nn1)C1CCCCC1	-3	-3
CN(C)[C@@H]1CCc2[nH]c3ccc(NC(=O)c4ccc(F)cc4)cc3c2C1	-15	-24
Cc1cnc2c(Cl)c(C(=O)N3CCN4CCN(C)C(=O)C4C3)nn2c1 (stereo unspecified)	6	2
COc1ccc(C(=O)N2CCC(n3c(=O)oc4c(C)cc(C)cc43)CC2)c(OC)c1	1	-2
Cc1ccccc1NC(=O)N1CCC(Cc2ccc(-c3ccccc3)cc2)CC1	2	9
Cc1ccc(C(=O)NCCc2nnc3ccc(SCc4cccc(Cl)c4)nn23)cc1	14	-3
COc1ccc(C=[N+](C)[O-])cc1OC	-1	-3
Cc1cccc(OCC(=O)N2CCOC(COc3ccc(F)cc3)C2)c1 (stereo unspecified)	3	-1
Cc1nnc(NC(=O)CSc2nnc(CNC(=O)c3ccc(S(=O)(=O)N(C)C)cc3)n2-c2ccccc2)s1	-8	-7
Cc1ccc(CN(C)C(=O)C2CCN(C(=O)/C=C/c3ccccc3)CC2)c(C)c1	-1	-1
CCN(CC)C(=O)CSc1nc(N)c(NC(=O)c2ccc(F)cc2)c(=O)[nH]1	-3	-8
Cc1cccc2c(=O)[nH]c(CN(C)C(C)c3ccccc3)nc12 (stereo unspecified)	-12	-10
CCCCCNc1nc2c(-c3cccc(C)c3)nnn2c2ccccc12	-8	-11

Record cards (already shown):
Record of Cn1ccnc1Sc1nc(-c2ccccn2)nc2scc(-c3ccccc3)c12 = NPYLR7 ag = 0; NPYLR7 ag max-min = -2
Record of O=C1NC(=S)NC(=O)C1=Cc1ccccc1OCc1ccc([N+](=O)[O-])cc1 = NPYLR7 ag = -1; NPYLR7 ag max-min = -5

Going on with the list:
SMILES	NPYLR7 ag	NPYLR7 ag max-min
CN1C(=O)NC(c2ccc(C(F)(F)F)cc2)C2=C1CN(Cc1ccc3c(c1)OCO3)C2=O (stereo unspecified)	2	7
CCCCCCCC(=O)N1CCN(c2cc(Cl)nc(SCC(=O)NCc3cccc(C(F)(F)F)c3)n2)CC1C (stereo unspecified)	15	18
CCC(Sc1nc2c(c(=O)n1-c1ccc(C)cc1)SCC2)C(=O)OC (stereo unspecified)	-3	-5
Clc1ccccc1CN1CCN(N=Cc2cccc(Br)c2)CC1	-5	-9
Cn1c(=O)c2c(ncn2CCC(=O)O)n(C)c1=O	1	7
CCNC(=O)N1CCN(C(C(=O)NCC(C)CC)C2CCCC2)CC1 (stereo unspecified)	-3	3
Cc1ccc(C(=O)ON=C(N)Cc2ccc(Cl)cc2Cl)cc1C	-11	-17
CC(=O)c1cccc(NC(=O)Cn2nc(C(F)(F)F)c(Cl)c2C)c1	-10	-13
CCC(C)(C)NC(=O)COC(=O)c1cc(C)ccc1NC(=O)N(C)C	6	4
c1nc(NC2CCCCC2)c2c3c(sc2n1)CCC3	12	6
CC(C)N(Cc1ccc(C(F)(F)F)nc1)Cc1cnn(C)c1	-1	-4
NS(=O)(=O)c1ccc(NN=C2CC3CC=CC23)c([N+](=O)[O-])c1 (stereo unspecified)	-7	-9
COc1ccc(-c2cc(C3CC3)nc(SCC#N)c2C#N)cc1	32	14
CC(C(=O)NCC(C)(C)N1CCOCC1)N(c1ccccc1)S(C)(=O)=O (stereo unspecified)	6	1
CCCC(=O)C1=C(c2ccc(Cl)cc2)N(C(=O)CCC)n2cnnc2S1	5	3
CCCCCc1ccc(C(=O)N2CCN(c3nc(C)nc(C)c3Cc3cccc(OC)c3)CC2)cc1	14	19

Among those listed so far, these contain an aryl methoxy group:
SMILES	NPYLR7 ag	NPYLR7 ag max-min
COc1ccc(CN2CCCN(c3ccc(S(=O)(=O)Nc4ccccc4)cc3[N+](=O)[O-])CC2)cc1	1	0
COc1ccc(-c2ncc(CN3CCCC(Nc4ccc(F)cc4)C3)cn2)cc1 (stereo unspecified)	2	0
CCc1cc2c(=O)c(-c3ccccc3Cl)c(C)oc2cc1OC	-5	-7
COc1cccc(-c2nc3c(NCCO)nccc3[nH]2)c1F	-3	-8
CCOCCCNCC(=O)N(CCc1ccc(OC)c(OC)c1)Cc1ccc(C)o1	-1	-3
COc1ccccc1-c1cccc(-c2cccc(NC(=O)c3cc(F)ccc3C)c2)n1	-3	8
COc1ccccc1NC(=O)Cn1c(-n2nc(C)cc2C)nc(C)cc1=O	-1	-3
CCCCCCc1ccc(C(=O)N2CCN(C(=O)c3cc(-c4cccc(OC)c4)n(-c4ccccc4F)c3C)CC2)cc1	-11	1
COCCCN(CC(=O)N(Cc1ccccc1)Cc1ccco1)C(=O)Nc1ccccc1OC	-9	-8
COc1ccc(-c2ccc3c(c2)COCC(=O)N3C(C)C)cn1	8	3
COc1ccc2cc(CNC(=O)CN(C)S(=O)(=O)c3ccc4c(c3)OCCO4)ccc2c1	-4	-4
COc1cccc(-c2cc(C(=O)N3CCN(c4ccc([N+](=O)[O-])cc4)CC3)nc3cc(-c4ccccc4)nn23)c1	3&20	3&30
COc1ccc(C(=O)c2c(N)c(-c3nc(-c4cc(OC)ccc4OC)cs3)c3ccccn23)cc1	7	6
COc1cc(C)ccc1Oc1cc(Cl)ncn1	-9	1
COc1ccc(-c2noc(CN3CCC(N4C[C@@H](C)O[C@@H](C)C4)CC3)n2)cc1	3	2
COc1ccc(S(=O)(=O)N2CCN(Cc3nnnn3-c3ccccc3)CC2)cc1OC	-1	-2
COc1ccc(OCc2cc(C(=O)NCc3cnn(C)c3C)n[nH]2)c(Cl)c1	9	9
COc1ccc(C(=O)N2CCC(n3c(=O)oc4c(C)cc(C)cc43)CC2)c(OC)c1	1	-2
COc1ccc(C=[N+](C)[O-])cc1OC	-1	-3
COc1ccc(-c2cc(C3CC3)nc(SCC#N)c2C#N)cc1	32	14
CCCCCc1ccc(C(=O)N2CCN(c3nc(C)nc(C)c3Cc3cccc(OC)c3)CC2)cc1	14	19

Not all compounds are listed. The share of hits here may be higher or lower than overall.
